# Source: PubChem BioAssay
# Vif A3G: inhibitors of Vif binding to APOBEC3G peptide, primary screen, biochemical, TR-FRET, GST-Vif 1-94, biotin-A3G peptide, dose response retest (AID 1117319); TR-FRET GST-Vif / biotin-A3G peptide binding; higher % means a stronger effect; test concentration not given here; strong numbers were not always called active; one-dose inhibition, %; IC50 in µM for titrated hits; Virion infectivity factor (Human immunodeficiency virus type 1 group M subtype B (isolate …; actives 0.57% (n = 260,000);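 active = above the screen mean plus three standard deviations and confirmed in dose response; inconclusive = results disagree or hit not tested in dose response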;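 also: Vif residues 1-94 fused to GST binding biotinylated APOBEC3G peptide 110-148; 0% = full assay without inhibitor and 100% = GST in place of GST-Vif; retest series ran down from 100 µM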
# LANA-H2B inh: blockers of LANA interaction with H2A/H2B – biochemical, FP readout, HTS, primary screen | inhibition, % (no concentration beside the values) | actives 0.6% (n = 320,000) | Protein LANA1 (Human herpesvirus 8 type P (isolate GK18)), Q9QR71 | AID 2629, 2010 | cell-free LANA-H2A/H2B peptide, fluorescence polarization; in the data active = inhibition mostly above about 10%, no sharp cut-off; inactive = mostly below about 6.7%;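 also: stock transfer was 7.5 nL into about 10 µL; 0% = median of vehicle wells and 100% = median of positive control wells; one replicate is shown; the record names a cut of 25% in any replicate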
# RanGTP-Imp inh: inhibitors of RanGTP-importin-beta interaction, primary screen, biochemical, FRET, CFP-Ran, YFP-importin-beta, homogeneous; Ran GTPase (GTP-bound) - importin-beta complex; cell-free CFP-Ran/YFP-importin-beta FRET ratio; inhibition, % (test concentration not listed); actives 1.1% (n = 300,000);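 active = most replicates above 15%; inconclusive = exactly half above 15%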;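 also: 0% = DMSO wells and 100% = Ran loaded with GDP instead of GTP; wells of about 40 µL received 100 nL stock; the first replicate is given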
# Beta cell apopt: inhibitors of cytokine-induced beta cell apoptosis, primary screen, luminescence; AID 435005, 2010; actives 0.8% (n = 300,000); protection from apoptosis, % (test concentration not listed); INS-1E cytokine-induced death, ATP luminescence, 48 h; percent of positive-control rescue, neutral wells zero;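 active = all replicates at 75% or more, or half of them and the mean; inconclusive = half reach 75% but not the mean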;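 also: 0% = cytokine-treated negative control wells and 100% = positive control rescue; higher means more ATP so stronger rescue from cytokine killing; wells of about 40 µL received 100 nL stock; the first replicate is given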
# MLL AF4-AF9 inh: inhibitors of AF4 peptide binding to AF9, primary screen, biochemical, AlphaScreen, biotin-AF4 peptide, FLAG-AF9, single point | Protein AF-9 (Homo sapiens), P42568 | actives 0.47% (n = 350,000) | inhibition, % at 10 µM;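 active = every replicate reaching a set inhibition limit, whatever the replicate mean, cut at about 25% in these data; inconclusive = mean inhibition reaches that limit but some replicates miss it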;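 also: 0% = plate neutral control median and 100% = total signal loss; the record names both 10 and 1 µM as test concentration; the first replicate is given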
# Target sequence (P42568 whole entry, looked up): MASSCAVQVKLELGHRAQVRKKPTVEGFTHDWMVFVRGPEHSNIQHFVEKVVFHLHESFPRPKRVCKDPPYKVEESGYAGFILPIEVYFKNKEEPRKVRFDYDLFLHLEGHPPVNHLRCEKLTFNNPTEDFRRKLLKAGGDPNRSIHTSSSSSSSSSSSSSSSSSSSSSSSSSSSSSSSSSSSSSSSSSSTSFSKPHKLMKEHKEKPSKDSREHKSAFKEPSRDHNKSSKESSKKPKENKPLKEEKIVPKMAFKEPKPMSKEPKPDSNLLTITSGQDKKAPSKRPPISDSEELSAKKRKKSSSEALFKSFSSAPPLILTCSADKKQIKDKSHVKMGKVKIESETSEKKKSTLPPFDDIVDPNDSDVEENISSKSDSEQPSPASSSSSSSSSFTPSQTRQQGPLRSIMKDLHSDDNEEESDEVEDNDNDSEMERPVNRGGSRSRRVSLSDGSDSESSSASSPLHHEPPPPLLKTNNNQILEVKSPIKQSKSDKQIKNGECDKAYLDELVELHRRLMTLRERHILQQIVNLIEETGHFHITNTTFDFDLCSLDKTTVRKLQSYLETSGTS
# T cruzi repl: inhibitors of intracellular T. cruzi growth, primary screen, luminescence, NIH3T3 host cells; T. cruzi beta-gal in NIH3T3, 90 h; inhibition, % (no concentration beside the values); actives 1.4% (n = 300,000);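 active = mean inhibition across valid replicates above about 55%, limit read from the data; inconclusive = mean below that limit but half or more replicates reach it; inactive = mean below it, under half of replicates reach it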;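 also: signal also drops with host cell toxicity which is not excluded here; 0% = plate median of DMSO wells and 100% = zero luminescence signal; higher percent means less beta-gal luminescence so fewer parasites; stock transfer was 50 nL into about 50 µL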
# Calb FLC: C. albicans growth inhibition with fluconazole, primary screen, CaCi-2 strain, Alamar Blue fluorescence; C. albicans CaCi-2 (fluconazole-resistant clinical isolate) + fluconazole, 48 h; growth inhibition, % (no concentration beside the values); actives 0.57% (n = 300,000); AID 1979, 2009;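 active = most replicates above 75%; inconclusive = exactly half above 75%; inactive = most below 75%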;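 also: all wells also contain fluconazole at 8 µg/ml as a sub-toxic cotreatment; 0% = median of DMSO wells and 100% = median of geldanamycin control wells; wells of about 8 µL received 7.5 nL stock; the first replicate is given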
# Bfl-1 A1 inh: caspase 3/7 activation in MEF A1-2A-BIM cells, primary screen, A1 inhibitor project, cell-based, luminescence, HTS; actives 0.066% (n = 330,000); caspase activation, % (concentration not given with the values); Caspase-Glo 3/7 luminescence, 3 h; percent of clofoctol response, vehicle zero; AID 2462, 2010;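 active = over half of replicate activation scores above 10%, or exactly half above 10 with the replicate mean above 10; inconclusive = replicate mean below 10 yet half the replicates above 10; inactive = over half of replicates below 10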;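 also: wells of about 30 µL received 50 nL stock; many hits fall short of the cut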
# The depositor's hits bear a star; ? = inconclusive; nt = no result given.
SMILES,Vif A3G,LANA-H2B inh,RanGTP-Imp inh,Beta cell apopt,MLL AF4-AF9 inh,T cruzi repl,Calb FLC,Bfl-1 A1 inh
CC(=O)Nc1ccc(NC(=O)c2ccc3c(c2)CCN3S(C)(=O)=O)cc1,-19%,-2.6,?,-5,-0.1,-6,0,1.4
CC1=NN(c2ccc(Cl)cc2)C(=O)C1C(c1ccccc1O)c1c(C)[nH]n(-c2ccc(Cl)cc2)c1=O (stereo not drawn),-16%,-4.9,-1.2,12,nt,-26,-2,-0.3
O=C(O)c1ccc2c(c1)c1c3n2CCNC3CCC1 (stereo not drawn),-14%,0.5,-7.9,-4,-1.0,7,1,-1.0
COc1ccc(OC)c(-c2cc(C(=O)N/N=C/c3cc(OC)c(OC)cc3OC)c3ccccc3n2)c1,nt,3.4,-2.0,-6,0.0,-12,1,0.8
Cc1ccc(NC(=S)N(Cc2ccco2)C(C)c2cccs2)c(Cl)c1 (stereo not drawn),3%,2.5,2.6,0,-6.3,-5,-6,0.8
NC(=O)C1CCCN(CCc2ccccc2)C1 (stereo not drawn),6%,6.8,-0.6,nt,nt,-21,-9,1.3
CCOC(=O)N1CCC(NC(=O)c2ccccc2C(=O)O)CC1,-2%,1.3,0.8,2,-1.9,-2,-2,0.9
CN1CCN(C(=O)C2CCCN(c3ncnc4c3nc3n4CCCCC3)C2)CC1 (stereo not drawn),1%,-1.6,0.3,-1,-1.0,-6,7,0.1
CCc1cc(S(N)(=O)=O)cc(CC)c1NC(C)=O,-4%,-0.5,-2.7,-5,1.7,nt,-3,0.0
CCC1CCC/C1=N\NC(=O)CCC(=O)Nc1ccccc1Cl (stereo not drawn),4%,2.4,-5.4,0,0.2,-4,-2,1.3
Cc1ccc(C(=O)Nc2ccc(Oc3ccc(C(=O)O)c(C(=O)O)c3)cc2)cc1C,2%,-6.8,-1.7,-3,nt,-17,-8,-0.8
COc1cccc(CN2CCC(CO)(CC3CCCCO3)CC2)c1 (stereo not drawn),-3%,-0.6,-5.0,-3,0.5,10,-11,-0.5
C/C(=N/NC(=O)CC1N=C(Cc2ccccc2)NNC1=O)c1cccnc1 (stereo not drawn),16%,0.1,1.1,-1,-2.1,-6,-17,0.5
O=C(Nc1ccccc1C(=O)NCc1cccnc1)c1cccc([N+](=O)[O-])c1,-7%,-0.4,6.4,-6,0.7,7,-3,1.8
Nc1ccc(-c2nnn(Cc3ccccc3F)n2)cc1,nt,5.8,-0.8,-2,2.9,1,-1,0.3
C=CCSc1nnc(NC(=O)c2ccc(NC(C)=O)cc2)s1,4%,-3.0,0.1,-5,3.9,4,-26,-0.4
COc1ccc(OC)c(-n2c(-c3cnccn3)n[nH]c2=S)c1,0%,3.9,-1.9,-4,nt,-7,0,-0.4
O=C(Nc1ccc(S(=O)(=O)N2CCOCC2)cc1)c1ccc2c(c1)S(=O)(=O)c1ccccc1C2=O,?,-0.6,4.6,-1,-1.5,17,-3,1.4
Cc1ccc(S(=O)(=O)NCc2cccnc2)cc1C(=O)N1CCCC1,nt,-0.5,-1.0,5,-0.4,-7,-1,0.5
CC(NC(=O)C1CCCN(S(=O)(=O)c2cccc3nonc23)C1)c1ccccc1 (stereo not drawn),-7%,-2.7,-0.9,6,nt,14,-3,0.4
O=C(Cn1ncc2c3ccccc3n(Cc3ccccc3)c2c1=O)N1CCN(c2ccccn2)CC1,nt,-3.2,?,0,nt,10,-2,0.5
CNCCCOc1ccc(Cl)cc1C(C)(C)C,1%,2.0,0.5,nt,-1.2,55*,-13,-0.4
COc1cc(C(=O)O)ccc1OCC(=O)N1CCOCC1,22%,-1.9,2.0,1,nt,-4,0,0.1
CCN(CC1CCCN(CCc2cccc(F)c2)C1)C(=O)c1cc(C)oc1C (stereo not drawn),nt,0.8,-3.1,-9,?,10,-2,0.5
Cc1ccccc1-c1nc2sc(C)c(C)c2c(=O)o1,-2%,-1.2,0.4,5,1.5,-6,-16,-7.0
COc1ccc(NC(=O)N(C)C[C@H]2Oc3ccc(NC(=O)CCN4CCOCC4)cc3C(=O)N([C@@H](C)CO)C[C@H]2C)cc1,nt,-0.3,nt,0,1.1,nt,nt,-0.9
COC(=O)c1cc(S(=O)(=O)N2CCN(c3cccc(Cl)c3)CC2)c[nH]1,nt,-23,2.5,0,nt,6,-3,0.2
COc1ccc(S(=O)(=O)Nc2ccc3oc(C)c(C(=O)O)c3c2)cc1,11%,1.4,2.7,-2,-0.7,-13,-4,-0.1
COc1ccccc1C(=O)Nc1cc(Cl)ccc1-n1cncn1,-24%,0.0,-0.4,-4,-0.2,12,6,-0.1
O=C(/C=C/c1ccccc1)NCCS(=O)(=O)N1CCN(c2ccccc2F)CC1,3%,-9.0,0.2,-9,-0.2,-4,5,1.2
CCc1ccc(S(=O)(=O)NCc2cccnc2)cc1,nt,5.4,2.0,nt,-4.4,-10,-13,1.2
CCOC(=O)c1nonc1NC(C)=O,22%,-6.0,0.2,-1,nt,7,-12,0.0
Cc1cc(C)n2nc(SCC(N)=O)nc2n1,3%,0.9,2.9,-2,-2.2,-19,-9,0.0
Clc1ccc(CCNc2ncnc3c2nnn3Cc2ccccc2)cc1,nt,0.7,2.9,6,-4.0,12,6,-0.7
O=C(c1ccc([N+](=O)[O-])s1)N1CCN(c2ccc(C(F)(F)F)cn2)CC1,nt,1.0,1.7,25,3.7,39,9,0.4
Cc1[nH]n(-c2nc(-c3ccc(Cl)cc3)cs2)c(=O)c1N=Nc1ccc(O)cc1,12%,5.8,-6.2,52,1.5,?,-3,0.1
O=C(OCCN1CCN(c2ncc(C(F)(F)F)cc2Cl)CC1)c1ccc(Cl)cc1,1%,1.6,-0.8,-2,nt,-19,-4,0.6
CN1C[C@@H]2C(c3ccc(Cl)nc3)C3(c4ccc(C#N)cc4)CC2(C3)[C@H]1c1ccccc1 (stereo partly drawn),nt,-4.2,2.2,34,nt,31,19,-1.3
CCc1cccc(OCC(=O)Nc2ccc(S(=O)(=O)Nc3ccccn3)cc2)c1,-4%,5.6,0.4,-2,-0.9,nt,-3,1.5
O=C(CCc1ccccc1)Nc1ccncc1,3%,3.5,2.4,3,nt,-10,10,1.5

# Some of the entries so far, field by field.
SMILES: Cc1ccccc1-c1nc2sc(C)c(C)c2c(=O)o1
  Vif A3G = -2%
  LANA-H2B inh = -1.2
  RanGTP-Imp inh = 0.4
  Beta cell apopt = 5
  MLL AF4-AF9 inh = 1.5
  T cruzi repl = -6
  Calb FLC = -16
  Bfl-1 A1 inh = -7.0

SMILES: COc1ccccc1C(=O)Nc1cc(Cl)ccc1-n1cncn1
  Vif A3G = -24%
  LANA-H2B inh = 0.0
  RanGTP-Imp inh = -0.4
  Beta cell apopt = -4
  MLL AF4-AF9 inh = -0.2
  T cruzi repl = 12
  Calb FLC = 6
  Bfl-1 A1 inh = -0.1

# More compounds follow.
SMILES,Vif A3G,LANA-H2B inh,RanGTP-Imp inh,Beta cell apopt,MLL AF4-AF9 inh,T cruzi repl,Calb FLC,Bfl-1 A1 inh
COc1ccccc1Cn1c(=S)[nH]c2cc(C(=O)NCCN(C)C)ccc2c1=O,-3%,2.7,-3.7,nt,9.5,-10,1,-0.1
CN(CC(=O)Nc1ccccc1Cl)C(=O)CN1C(=O)C2CC=CCC2C1=O (stereo not drawn),nt,-5.1,nt,3,-3.9,nt,nt,0.2
CCOc1ccccc1-c1nn2c(Cc3ccccc3)nnc2s1,-29%,-0.6,0.6,-7,nt,41,24,-0.4
COc1cc2c(cc1OC)C(C(=O)Nc1ccccn1)C(c1cccnc1)N(C)C2=O (stereo not drawn),-3%,5.5,0.5,-2,nt,-3,-15,-0.2
CCOC(=O)C(=O)Nc1ccc(Oc2ccccc2)cc1,-5%,-7.0,-0.4,-4,0.1,-18,6,-0.1
O=C(Nc1cc(Cl)ccc1N1CCOCC1)c1ccco1,6%,0.6,-1.7,-5,-3.1,7,4,1.2
O=C(Nc1ccc(Br)cc1Cl)NC1CC1,2%,-0.5,?,12,-1.3,-4,17,-1.0
COc1cccc(C(N)=O)c1,nt,-1.0,6.0,-5,nt,-18,0,0.7
CC1CCN(C(=O)C2CCN(CC(C)c3ccccc3)CC2)CC1 (stereo not drawn),2%,-6.5,2.0,-3,nt,3,-18,1.3
CC(=O)NC(O)C(=O)c1ccccc1 (stereo not drawn),26%,4.4,-2.0,-7,nt,-8,30,-0.8
O=C(COC(=O)c1cc2c(s1)CCCCC2)NC1CCS(=O)(=O)C1 (stereo not drawn),12%,5.5,-2.3,0,-7.1,4,nt,0.4
CSc1nnc(-c2ccc(F)cc2)o1,-7%,3.9,6.0,nt,nt,-7,0,-2.2
CCn1nc(C)c(CN2CCN(Cc3cccc(OC)c3)C(CCO)C2)c1C (stereo not drawn),18%,2.4,1.9,-7,1.4,19,-5,1.3
CC(C)(C#N)Nc1ccccc1,-4%,4.1,3.6,4,-27,-11,-6,0.1
CCS(=O)(=O)N1Cc2ccccc2CC1C(=O)N(C)Cc1ccc(OC)cc1OC (stereo not drawn),nt,0.6,4.0,-3,3.9,17,5,1.2
CCOC(=O)C1=C(C)N(C)C(=O)NC1c1cccc2ccccc12 (stereo not drawn),19%,-4.5,3.5,-2,1.3,-9,-24,0.1
CC1(C)C(=O)OC(/C=C\c2cccc([N+](=O)[O-])c2)C(C)(C)C1=O (stereo not drawn),-10%,5.4,-2.3,2,-3.3,-16,2,0.0
CCOc1ccccc1OCC(=O)Nc1cccc(S(=O)(=O)NC2=NCCCCC2)c1,-16%,0.8,nt,-3,1.4,nt,nt,1.6
COC(=O)c1ccc(OCCOc2ccc(C(=O)OC)cc2)cc1,2%,-0.6,7.5,-7,nt,-1,-1,0.1
Cc1cc(F)ccc1S(=O)(=O)NCC1CC2CCC1C2 (stereo not drawn),0%,-1.9,1.1,1,1.3,-5,-26,0.1
CC(=O)OCCCN1C(=O)c2ccc(Br)cc2C1=O,-1%,1.8,8.4,7,nt,-15,25,-1.0
CCOc1ccccc1NC(=O)CSc1nnc(CNC(=O)c2ccco2)o1,7%,1.2,2.2,-11,nt,-4,-1,-0.1
CCOc1cc(C(=O)Nc2cc(OC)cc(OC)c2)ccc1OCC(=O)N1CCOCC1,-4%,-2.3,nt,-1,-0.7,nt,nt,-0.2
CN(C(=O)CSc1nc(-c2ccc(F)cc2)cs1)C1CCS(=O)(=O)C1 (stereo not drawn),4%,-7.2,1.3,nt,nt,17,?,0.0
